# 2A StopGo – High Throughput Screening for Foot and Mouth Disease Virus Antivirals; human cells with a luciferase reporter of 2A StopGo recoding; control for the full effect not named in the record; Potency, µM (series often up to 57.9 µM), for inactives: at the top dose signal change, negative = less light; 410,000 compounds, 1.2% hits; active = well fitted falling curve with a large enough effect; inconclusive = small, poorly fitted or top-dose-only effect; inactive = no such curve, though single readings can be large or run the other way; tested in HEK293T cells; also: % is scaled to controls: 0 for no effect and ±100 for the full control effect; nearly all actives have a fitted effect of over 45% in size; luciferase light after 4 h
# RE007 growth inh – qHTS Assay for Inhibitors of the HIV-1 protein Vpr | Potency, µM (series often up to 92.2 µM), inactives show at the top dose activity change, negative = less growth | AID 651644, 2012 | S. pombe RE007 Vpr strain, BacTiter-Glo ATP luminescence, 24 h; control for the full effect not named in the record | 360,000 compounds, 0.21% hits; active = well fitted falling curve with a large enough effect; inconclusive = small, poorly fitted or top-dose-only effect; inactive = no such curve, though single readings can be large or run the other way;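 also: % is scaled to controls: 0 for no effect and ±100 for the full control effect; nearly all actives have a fitted effect of over 50% in size; the assay follows cell death caused by Vpr and the record does not say whether a fall means rescue or toxicity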
#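 Fission yeast strain RE007, carrying one chromosomally integrated HIV-1 vpr copy, was seeded at OD 0.01 in PMG+AL medium with 23 nL pinned compound. After 24 h at 30 °C and 99% humidity, viability was read by BacTiter-Glo luminescence.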
# SARS PLpro yeast – qHTS of Yeast-based Assay for SARS-CoV PLP | S. cerevisiae expressing SARS-CoV PLpro, growth rescue; control for the full effect not named in the record | Potency, µM (titrated, usually from 32.9 µM), for the others: top-dose activity, positive = growth rescue | 330,000 compounds, 0.19% hits; also: 0% is about no effect; nearly all actives have a fitted effect of over 55% in size; growth read by luminescence after 48 h
# LASV entry inh – qHTS for Inhibitors of binding or entry into cells for Lassa Virus; Lassa virus pseudotype entry inhibition, cell reporter; control for the full effect not named in the record; Potency, µM (highest dose often 37.9 µM), for inactives: at the top dose activity change, negative = inhibition, hits mostly inhibitors; 300,000 compounds, 1.2% hits; AID 540256, 2011; active means well fitted inhibition curve with a large enough effect; inconclusive means small, poorly fitted or top-dose-only effect, or effect the other way; inactive means flat fitted curve, though single readings scatter; tested in HEK293 cells; also: % is scaled to controls: 0 for no effect and ±100 for the full control effect; nearly all actives have a fitted effect of over 50% in size; luciferase read-out
# Cruzain noTriton – qHTS Assay for Promiscuous and Specific Inhibitors of Cruzain (without detergent) | Cruzipain (Trypanosoma cruzi), P25779 | purified cruzain, Z-FR-AMC fluorescence, no detergent | Potency, µM, for the others: max response, negative = inhibition, hits mostly inhibitors | 200,000 compounds, 2.3% hits | AID 1476, 2009; active = well fitted curve in the direction sought with a large enough effect; inconclusive = small, poorly fitted or top-dose-only effect, or another doubt; inactive = no such curve, though single readings can be large; an effect the other way counts as inactive or inconclusive;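 also: plate controls were enzyme without inhibitor for no effect and buffer without enzyme for full effect; nearly all actives have a fitted effect of over 40% in size; top concentration of the series not given in the record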
# Target sequence (P25779 123-467 limits assumed): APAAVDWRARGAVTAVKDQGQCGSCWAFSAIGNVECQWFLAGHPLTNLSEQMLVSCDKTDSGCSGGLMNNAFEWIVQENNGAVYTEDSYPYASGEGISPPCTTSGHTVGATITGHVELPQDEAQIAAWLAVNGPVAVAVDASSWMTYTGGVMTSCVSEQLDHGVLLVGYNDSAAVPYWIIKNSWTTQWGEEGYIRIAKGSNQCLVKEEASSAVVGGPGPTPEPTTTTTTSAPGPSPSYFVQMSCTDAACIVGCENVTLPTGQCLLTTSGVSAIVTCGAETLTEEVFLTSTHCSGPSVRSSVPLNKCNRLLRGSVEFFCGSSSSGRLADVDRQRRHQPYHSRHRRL
#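 Detergent-free condition (0.00005% Triton X-100) in acetate buffer pH 5.5 with DTT. 1.5 nM enzyme and compound were pre-mixed 15 min, then 2 uM Z-FR-AMC substrate added; reaction progress from fluorescence change between first and third reads (60 s).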
# NS1 function inh – qHTS Assay for Inhibitors of Influenza NS1 Protein Function; Potency, µM (top dose mostly 46.1 µM), for the others: at the top dose activity, positive = more growth; S. cerevisiae slowed by influenza A NS1, growth recovery by OD600; 270,000 compounds, 0.4% hits; also: actives are rising curves; nearly all actives have a fitted effect of over 50% in size
#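 Recovery from NS1-induced slow growth read by OD600 in budding yeast switched to galactose assay medium (pH 6.0, -URA) at 1:100 dilution. Compound 23 nl per well; the matching strain lacking NS1 serves as control.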
# MARV entry inh – qHTS for inhibitors of binding or entry into cells for Marburg Virus | Marburg virus pseudotyped entry inhibition, cell reporter; control for the full effect not named in the record; about a third of the inactives were read at about 46 µM | Potency, µM (titrated, usually from 37.8 µM), without a hit: at the highest dose activity change, negative = inhibition, most hits filed as inhibitors | 300,000 compounds, 1.8% hits; active = well fitted inhibition curve with a large enough effect; inconclusive = small, poorly fitted or top-dose-only effect, or effect the other way; inactive = flat fitted curve, though single readings scatter; tested in HEK293 cells; about a fifth of its hits are not listed in these tables; also: % is scaled to controls: 0 for no effect and ±100 for the full control effect; luciferase read-out
# Cruzain Triton – qHTS Assay for Promiscuous and Specific Inhibitors of Cruzain (with detergent) | Cruzipain (Trypanosoma cruzi), P25779 | purified cruzain, Z-FR-AMC fluorescence, 0.01% Triton | Potency, µM, for the others: max response, negative = inhibition, usual class: inhibitors | 200,000 compounds, 0.43% hits | AID 1478, 2009; active = well fitted curve in the direction sought with a large enough effect; inconclusive = small, poorly fitted or top-dose-only effect, or another doubt; inactive = no such curve, though single readings can be large; an effect the other way counts as inactive or inconclusive;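 also: plate controls were neutral wells for no effect and buffer without enzyme for full effect; nearly all actives have a fitted effect of over 40% in size; top concentration of the series not given in the record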
#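 Enzyme 1.5 nM, Z-FR-AMC 2 uM, NaOAc 100 mM pH 5.5, DTT 5 mM, Triton X-100 0.01%; 15 min RT compound preincubation; kinetic ex360/em450, 60 s delta.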
# Numbers without * were called inactive; ? = inconclusive; nt = not tested or not shown; [ ] = dose if it differs, or a comment. Unless noted, calls follow the shape of the dose curve; as a rule, active means well fitted rising curve with a large enough effect; inconclusive means small, poorly fitted or top-dose-only effect; inactive means no such curve, though single readings can be large or run the other way. Potency is read from the fitted curve at half-maximal effect. No enrichment for hits; any-hit rate near 4.7%.
SMILES,2A StopGo,RE007 growth inh,SARS PLpro yeast,LASV entry inh,Cruzain noTriton,NS1 function inh,MARV entry inh,Cruzain Triton
CC(=O)c1sc(N/N=C2\CC3CC2C(C)C3(C)C)nc1C (stereo unspecified),20%,6%,2%,0%[46.1 µM],nt,7%,?,nt
CCOC(=O)c1sc(NC(=O)c2nc3ncccn3n2)c(C(=O)OC(C)C)c1C,8%,nt,nt,2%[46.1 µM],-9%,nt,nt,-0.8%
Cc1ccc(OCC(=O)NCCNC(=O)c2ccncc2)cc1C,8%,5%,1%,3%[46.1 µM],nt,4%,-2%[46.1 µM],nt
COc1ccc(C2(CNC(=O)CCC(=O)O)CCCC2)cc1,-14%,7%,-1%,2%,-5%,13µM*,7%[46.1 µM],-0.7%
O=C(Nc1cccc(Cl)c1Cl)C1CCCC1,5%,2%,nt,6%,nt,nt,1%[46.1 µM],nt
Cc1ccc(C)c(NC(=O)N2CCc3ccccc3C2)c1,0%,12%,-3%,nt,nt,-19%,nt,nt
COc1ccc(C2=NN3C(C2)c2ccccc2OC32C(=O)N(C)c3ccccc32)cc1 (stereo unspecified),8%,?,-13%,?,-12%,1%,?,-2.2%
CCOC(=O)N1CCN(C(=O)c2ccc3c(c2)N=C(C)c2cc(Cl)ccc2S3)CC1,?,-6%,0%,nt,nt,-16%,nt,nt
CCOc1ccc(CN(CCc2ccc3c(c2)OCO3)Cc2cccc(OC)c2)cc1,0%,nt,nt,5%[46.1 µM],-2%,nt,-19%[46.1 µM],-5.4%
COc1ccc(C(=O)N(CC(=O)NC(C)(C)C)c2ccc3c(c2)OCCO3)cc1OC,15%,10%,-1%,-2%,0%,-5%,8%,-2.8%
COc1ccc2sc(N(CCCN(C)C)C(=O)c3ccc(S(=O)(=O)N4CCc5ccccc5C4)cc3)nc2c1,25µM*,-3%,0%,3.5µM*,nt,nt,?,nt
COC(=O)C1(C(C[N+](=O)[O-])c2ccc(C)cc2)C(=O)NCC1c1ccco1 (stereo unspecified),9%,3%,-1%,-22%,nt,-6%,7%,nt
O=C(c1cnn2c1NC(c1ccco1)CC2C(F)(F)F)N1CCN(c2cccc(Cl)c2)CC1 (stereo unspecified),?,-7%,11%,13µM*,-2%,-45%,?,-20%
CCN(CC(=O)Nc1ccc2c(c1)OCCO2)C(=O)C1CCCCC1,0%,-5%,-2%,-8%,-3%,-7%,-11%,-0.8%
Cc1ccc2nc(NC3=NCN(CCc4ccccc4)CN3)nc(C)c2c1,nt,nt,0%,nt,?,-8%,1%,-15%
Cc1ccc(CCNC(=O)c2ccc(CSCc3ccccc3C)o2)cc1,-17%,nt,nt,-25%[46.1 µM],-10%,nt,nt,-2.6%
CCOC(=O)N1CCC(Nc2cccc(SC)c2)CC1,nt,2%,-7%,2%,3%,5%,1%,0.8%
CCCC(=O)Nc1nc2c(OC)ccc(OC)c2s1,3%,7%,-1%,nt,5%,-60%,nt,1.9%
CN(C)c1ccc(C(=S)N2CCN(C(=S)Nc3ccccc3)CC2)cc1,4%,9%,-1%,0%[46.1 µM],nt,3%,8%[46.1 µM],nt
CCOc1ccccc1C(=O)Nc1nnc(SCC(=O)N2CCOCC2)s1,1%,1%,2%,-20%,nt,nt,12%[46.1 µM],nt
COCCCNC(=O)c1[nH]c2cc(OC)ccc2c1Sc1ccc(C)cc1,0%,nt,nt,?,26%,nt,-14%[46.1 µM],1.3%
COc1ccccc1NC(=O)CN1CCN(c2ccccc2F)CC1,?,-15%,-3%,?,-5%,-42%,15%[46.1 µM],-4.4%
Cc1ccccc1-c1nc(CS(=O)(=O)CC(=O)N2CCc3ccccc32)c(C)o1,-11%,3%,15%,nt,-15%,-7%,nt,-2.8%
O=C(CCN1C(=O)C2C3C=CC(C3)C2C1=O)N1CC(=O)N(CCc2ccccc2)C(=O)C1 (stereo unspecified),-3%,0%,2%,2%,-7%,-12%,-15%,-6.5%
CCOC(=O)CN1CCc2c(C)nc3c(-c4ccc(OC)c(OC)c4)cnn3c21,-15%,5%,9%,0%,4%,-2%,-8%,-3.6%
Cc1ccc(S(=O)(=O)NCC(=O)N(CC(=O)NC2CCCCC2)CC2CCCO2)cc1 (stereo unspecified),29%,3%,3%,3%,-2%,0%,-4%,3.8%
CCn1c(SCC(=O)N2CCOCC2)nnc1C(C)NC(=O)c1ccccc1 (stereo unspecified),-1%,9%,0%,nt,nt,-7%,nt,nt
COc1ccc(C(CNC(=O)CN2C(=O)NC3(CCCC3)C2=O)N(C)C)cc1 (stereo unspecified),-7%,1%,0%,?,nt,-4%,-3%[46.1 µM],nt
COc1cc(C)c(C(=O)CSc2nnc(CNC(=O)c3ccco3)n2C)cc1C,-9%,4%,1%,24%[46.1 µM],nt,?,2%[46.1 µM],nt
O=C(/C=C/NCc1cccnc1)C(F)(F)C(F)(F)F,9%,4%,-1%,8%,nt,nt,11%[46.1 µM],nt
CNC(=O)CSc1nnc(-c2ccncc2)n1Cc1ccccc1,14%,-26%,6%,1%,-5%,-1%,-1%,4.0%
O=[N+]([O-])c1ccc(/C=N/n2c(-c3ccccc3)n[nH]c2=S)cc1,0%,18%,4%,0%,nt,4%,-4%,nt
Cc1cc2c(cc(C(=O)N3CCC(C(=O)N4CCCC4)CC3)n2Cc2c(F)cccc2Cl)o1,-1%,-9%,13%,nt,?,-54%,nt,2.2%
Cc1ccc(NC(=O)CN2C(=O)CNC2=O)cc1,-27%,7%,4%,nt,nt,1%,nt,nt
O=C1CCCN1c1ccc(Br)cc1,16%,2%,-7%,-11%,-11%,-1%,4%,6.0%
Oc1c(/C=N/c2ncn[nH]2)ccc2ccccc12,-13%,-5%,0%,-5%,-1%,-78%,-23%,-2.8%
Cc1[nH]c2ccccc2c1/C=N/NC(=O)c1cc(C(C)(C)C)[nH]n1,-6%,1%,-2%,?,nt,-13%,-10%,nt
COc1cc(NC(=O)Cn2c(=O)n(-c3ccccc3)c(=O)c3c4c(sc32)CCCC4)cc(OC)c1,-25%,nt,nt,16%[46.1 µM],-8%,nt,-2%[46.1 µM],-2.5%
CCOc1cc(/C=N/NC(=O)c2ccccn2)ccc1OC(=O)c1cccs1,113%[activator],-11%,?,9%,nt,13%,12%,nt
CCOc1ccccc1NC(=O)Cc1coc2c(C)c(C)ccc12,?,nt,nt,-1%[46.1 µM],-2%,nt,-29%[46.1 µM],1.4%
COc1ccc(NS(=O)(=O)c2cccs2)cn1,6%,-13%,1%,6%,nt,nt,1%[46.1 µM],nt
CCn1cc(C(=O)NCCCN2CCCC2)c(=O)c2cc(S(=O)(=O)N3CCc4ccccc4C3)ccc21,-10%,8%,3%,-19%,nt,nt,?,nt
Cc1[nH]c2ccccc2c1/C=C/c1nc2ccccc2c(=O)n1-c1ccc([N+](=O)[O-])cc1,-24%,nt,3%,0%,25µM*,14%,2%,0.7%
COc1ccc(N(CC(=O)NN=C2CCCC2)S(=O)(=O)c2ccccc2)cc1,3%,-9%,2%,7%,2%,23%,0%,3.2%
CCOC(=O)CSc1nc2cc3c(cc2c(=O)n1CCCCCC(=O)NCc1ccc2c(c1)OCO2)OCO3,-26%,nt,nt,2%[46.1 µM],-6%,nt,nt,1.6%
COc1ccccc1N1CCN(C(=O)c2ccc3c(Cl)c4c(nc3c2)CCCC4)CC1,-6%,-10%,-68%,-17%,?,-33%,-27%,-7.5%
COc1cc(NC(=O)c2ccnnc2)cc(C(=O)Nc2cccc(C(F)(F)F)c2)c1,-10%,3%,0%,nt,nt,3%,nt,nt
Cc1ccccc1C(=O)N/N=C/c1ccccn1,?,9%,-7%,?,3%,7%,?,-3.7%

# Only LASV entry inh and Cruzain noTriton (2 entries from above):
SMILES | LASV entry inh | Cruzain noTriton
O=[N+]([O-])c1ccc(/C=N/n2c(-c3ccccc3)n[nH]c2=S)cc1 | 0% | nt
O=C(CCN1C(=O)C2C3C=CC(C3)C2C1=O)N1CC(=O)N(CCc2ccccc2)C(=O)C1 (stereo unspecified) | 2% | -7%

# Four compounds picked at random from those above, as already listed:
SMILES,2A StopGo,RE007 growth inh,SARS PLpro yeast,LASV entry inh,Cruzain noTriton,NS1 function inh,MARV entry inh,Cruzain Triton
CCN(CC(=O)Nc1ccc2c(c1)OCCO2)C(=O)C1CCCCC1,0%,-5%,-2%,-8%,-3%,-7%,-11%,-0.8%
COc1ccc2sc(N(CCCN(C)C)C(=O)c3ccc(S(=O)(=O)N4CCc5ccccc5C4)cc3)nc2c1,25µM*,-3%,0%,3.5µM*,nt,nt,?,nt
CCn1c(SCC(=O)N2CCOCC2)nnc1C(C)NC(=O)c1ccccc1 (stereo unspecified),-1%,9%,0%,nt,nt,-7%,nt,nt
O=C(c1cnn2c1NC(c1ccco1)CC2C(F)(F)F)N1CCN(c2cccc(Cl)c2)CC1 (stereo unspecified),?,-7%,11%,13µM*,-2%,-45%,?,-20%
